Arbovirus inh = antivirals against arbovirus infection; inhibition, % at 10 µM; arbovirus infection cell-based antiviral screen; AID 1251; hit rate 0.37% among 200,000;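 active = inhibition from about 30%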;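 note: bluetongue infection of BSR cells; cell survival read as ATP light after 72 h; 0% = infected wells without compound and 100% = uninfected wells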
YopH PTP inh = inhibitors of Yersinia enterocolitica YopH tyrosine phosphatase | fluorescence Ex485/Em525 | inhibition, %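 (about 10 µM by stock and volumes)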 | hit rate 0.16% among 140,000;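 active = inhibition of 50% or more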;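 note: controls were vehicle for no effect and minimum signal wells for full effect; inactives centre near -20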
Mtb bLac sens = beta-lactam sensitization of Mtb H37Rv; hit rate 0.27% among 330,000; AID 434955; M. tuberculosis H37Rv growth with meropenem, percent inhibition; hits of this screen are not shown here; inhibition, % at 25 µM;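 active = about 74% or more and at least 40 points above the plate without the antibiotic, then above 30% in a dose series; inconclusive = first-round hits that could not be retested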;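 note: growth measured after seven days incubation then overnight dye step; 0% = bacteria only wells and 100% = bacteria with antibiotic; twin plates without the antibiotic show which effects depend on it; some results filed as inactive read as strong as hits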
RecA intein inh = blocks M. tuberculosis RecA intein splicing. P9WHJ3. cell-free RecA intein splicing, fluorescence. inhibition, %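 (about 9 µM by stock and volumes)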. hit rate 0.75% among 290,000; in the data active = inhibition above about 30%; inconclusive = no clear call, values can overlap the other calls;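 note: 0% = vehicle wells and 100% = reference inhibitor control wells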
Target sequence (P9WHJ3 whole entry, looked up): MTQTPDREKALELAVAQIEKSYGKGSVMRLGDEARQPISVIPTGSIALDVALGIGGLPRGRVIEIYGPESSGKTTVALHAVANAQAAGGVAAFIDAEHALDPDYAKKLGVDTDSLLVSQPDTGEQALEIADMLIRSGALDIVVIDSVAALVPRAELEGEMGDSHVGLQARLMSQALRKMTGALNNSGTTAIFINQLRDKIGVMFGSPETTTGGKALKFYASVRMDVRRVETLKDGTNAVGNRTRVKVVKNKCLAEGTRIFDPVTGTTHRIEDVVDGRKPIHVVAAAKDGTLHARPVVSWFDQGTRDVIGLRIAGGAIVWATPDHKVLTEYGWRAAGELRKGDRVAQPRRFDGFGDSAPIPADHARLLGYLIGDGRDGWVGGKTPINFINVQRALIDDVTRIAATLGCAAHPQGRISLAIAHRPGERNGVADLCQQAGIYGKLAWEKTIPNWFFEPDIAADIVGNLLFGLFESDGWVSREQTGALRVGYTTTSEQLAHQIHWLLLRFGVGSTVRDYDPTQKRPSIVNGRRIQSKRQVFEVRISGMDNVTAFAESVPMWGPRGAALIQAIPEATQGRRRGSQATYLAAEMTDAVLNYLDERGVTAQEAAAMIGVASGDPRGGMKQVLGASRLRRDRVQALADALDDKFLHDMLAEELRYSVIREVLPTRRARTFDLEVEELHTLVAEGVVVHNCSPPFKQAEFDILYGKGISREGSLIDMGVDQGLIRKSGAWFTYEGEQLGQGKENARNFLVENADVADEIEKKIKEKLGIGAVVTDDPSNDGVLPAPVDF
Mtb growth = M. tuberculosis H37Rv growth inhibitors, H37Rv strain (AID 1626) | M. tuberculosis H37Rv growth inhibition; higher % means a stronger effect | inhibition, % at 10 µM, or IC50 in µM where a hit was titrated | hit rate 0.95% among 220,000;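 active = confirmed in a dose series; inconclusive = inhibition above 80% but not taken into the dose series; inactive = below 80% or under 30% at every dose of the series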;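 note: bacteria incubated seven days before Alamar blue readout; 0% = bacteria only wells and 100% = bacteria with antibiotic wells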
Arbovirus inh repeat = also measured in Arbovirus inh; calls as there; inhibition, %; measured here: 10K subset replicate screen; many hits read low in the repeat;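 first of two repeat runs on a subset; 0% = infected and 100% = uninfected wells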
* hit, by the source's call; ? = inconclusive; nt = not tested or not shown. Some of the compounds tested (hit frequency here may not be typical).

SMILES	Arbovirus inh	YopH PTP inh	Mtb bLac sens	RecA intein inh	Mtb growth	others
CC1CCCC/C1=N\NC(=S)NCCc1ccccc1 (configuration not stated)	16.7	nt	99.5	2.3	?
O=C(CCn1cnnn1)Nc1cccc(F)c1	3.6	nt	4.7	-0.1	-8.8%
CCN(CC)S(=O)(=O)c1ccc2c(c1)N(CC(=O)N1CCC(C(N)=O)CC1)C(=O)CO2	nt	nt	3.9	-4.5	nt
COc1ccccc1-c1coc2cc(OCC(=O)OCc3ccccc3)ccc2c1=O	-2.3	-18.6	99.9	5.6	8.3%
N/C(COc1cccc(Cl)c1)=N\O	nt	nt	-6.1	0.6	-4.2%
FC(F)Oc1ccc(-c2csc(NNC3=NCCCCC3)n2)cc1	-14.5	nt	14.2	1.3	4.8%
COc1cc(OC)cc(C(=O)N2CC(=O)Nc3ccccc32)c1	nt	nt	-3.6	0.8	nt
Cc1ccc(CNC(=O)C2CCN(S(=O)(=O)c3c(C)noc3/C=C/c3ccco3)CC2)cc1	-0.8	-32.5	-5.5	0.9	2.0%
c1cc2nc(C34CC5CC(CC(C5)C3)C4)[nH]c2cn1	1.9	-10.7	-1.9	nt	-0.6%
COc1cccc(C2C(C#N)=C(N)Oc3cc(C)n(Cc4ccco4)c(=O)c32)c1 (configuration not stated)	3.3	-31.2	-2.5	3.4	-7.7%
Cn1c(SCC(=O)Nc2ccc3cn[nH]c3c2)nnc1-c1cccs1	-3.3	-10.8	-4.6	1.2	-1.2%
CCN1CCN(c2ccc(S(=O)(=O)N3CCCCC3)cc2NC(=O)c2cc3ccccc3o2)CC1	nt	nt	98.5	-2.0	nt
O=C(O)c1ccccc1-c1ccccc1C(=O)Nc1nc2ccccc2s1	nt	nt	-8.5	3.1	10.7%
CNS(=O)(=O)c1cc(NC(=O)c2cncn2-c2ccccc2)ccc1C	nt	nt	-3.6	-2.3	nt
CCCc1cc(=O)[nH]c(SCC(=O)N(C)CC(=O)Nc2ccc(C)cc2)n1	0.6	-24.8	-2.4	1.9	-1.0%
Cn1c(=NC(=O)c2ccc(S(=O)(=O)N3CCCc4ccccc43)cc2)sc2cc(S(C)(=O)=O)ccc21	3.8	-18.0	-2.2	-0.1	-4.9%
Cc1cc(C)nc(NC2=NCC(=O)N2c2ccccc2Br)n1	3.5	-3.1	-5.2	-2.0	1.1%	Arbovirus inh repeat=2.4
CC(C)(C)CC(=O)Nc1nnc(SCC(=O)NCc2cccs2)s1	-4.7	nt	-9.7	1.0	-3.2%
CCOc1ccccc1CN1C(=O)c2ccccc2C1C(=O)NC(C)CC (configuration not stated)	1.0	-5.0	-8.2	-1.7	8.2%
CNC(=O)CSc1nnc(-c2cnccn2)n1C	-0.8	nt	-2.6	-3.6	-10.5%
Cc1ccc(-n2c(SCCN)nnc2-c2cccc(C)c2)cc1	nt	nt	-9.6	2.0	-11.8%
CN(Cc1cc([N+](=O)[O-])c2cccnc2c1O)C1CCCCC1	-24.5	-31.6	1.1	-0.4	3.1%
Oc1ccc(N=Nc2ccccc2-c2nn[nH]n2)c(O)c1	nt	nt	8.7	0.3	nt
Cc1ccc(C(=O)C(C)OC(=O)Cn2cnc3c2c(=O)n(C)c(=O)n3C)cc1 (configuration not stated)	nt	nt	-5.6	2.1	nt
CCOC(=O)c1ccc(/C=N/O)[n+](Cc2ccccc2)c1	nt	nt	-3.7	2.5	nt
c1ccc(-c2nnsc2-c2ncc[nH]2)cc1	5.0	nt	9.8	-1.1	-1.9%
CCOC(=O)c1ccc(N2CCN(C(C)=O)CC2)c(NC(=O)c2cccnc2)c1	-2.1	nt	-2.2	0.1	1.8%
CN(C)/C=N/c1c(C#N)cnn1C	3.8	nt	-6.4	-1.7	-9.9%
Cc1oc(-c2ccccc2F)nc1CS(=O)(=O)CC(=O)NC1CCCC1	4.0	-1.2	-1.4	-0.8	-6.2%
Cc1onc(-c2ccccc2)c1C(=O)Nc1ccccc1NC(=O)c1c(-c2ccccc2)noc1C	nt	nt	-7.9	-0.8	nt
NS(=O)(=O)c1ccc(NC(=S)Nc2ccc(C(=O)N3CCCCC3)cc2)cc1	4.3	nt	-4.5	0.5	-0.7%
CC(=O)Oc1ccc(/C=C(\NC(=O)c2cccc(Br)c2)C(=O)Nc2ccc(C(=O)O)cc2)cc1	nt	nt	3.1	9.3	nt
COc1ccc(OC)c(N2C(=O)c3cccnc3C2=O)c1	nt	nt	-0.8	0.1	nt
O=C(CSc1ccccc1)Nc1nccs1	13.2	nt	-8.9	4.0	5.2%
COc1ccc(-c2cc(C(=O)NCCCN3CCOCC3)on2)cc1OC	nt	nt	-0.2	0.0	nt
COCCNC(=O)c1ccc2c(c1)NC(=O)CS2	10.5	-9.3	-1.5	2.7	-4.5%
Cc1ccc(-c2nc(CS(=O)(=O)CC(=O)NCc3cccc(F)c3)c(C)o2)cc1	nt	nt	-3.2	-0.2	nt
CCOc1ccc(CCNS(=O)(=O)c2ccc3c(c2)N(C(C)=O)CCO3)cc1OCC	nt	nt	3.2	-1.2	nt
CCOC(=O)C1=C(C)NC(=S)NC1c1ccco1 (configuration not stated)	nt	nt	-7.1	2.8	-6.9%
CC1(C)O[C@H]2OC([C@H](O)CON3C(=O)c4ccccc4C3=O)[C@H](O)[C@H]2O1 (some centres not stated)	6.0	-17.7	1.8	nt	-12.0%
O=C1C(Cl)=C(NCCCO)C(=O)c2ccccc21	-6.8	-19.9	5.4	16.6	-0.2%
CCOC(=O)c1ccc(-c2ccc(C(=O)Nc3cccnc3)o2)cc1	-15.6	-33.8	99.3	5.3	?
Brc1ccc(-c2noc(CCc3ccccc3)n2)o1	-6.3	-17.6	5.6	6.4	17.5%	Arbovirus inh repeat=-7.9
O=C(CNC(=O)Cc1ccccc1)NCC(=O)OCC(=O)c1cccc2ccccc12	4.5	2.9	-12.8	-2.5	-7.4%
CCOc1cccc(-c2c(C(=O)N/N=C/c3c(F)cccc3Cl)nnn2-c2nonc2N)c1	nt	nt	34.3	-1.2	nt
Fc1ccc(CSc2nnc(-c3ccco3)o2)cc1	nt	nt	59.1	-0.1	21.4%
CCC(C(=O)Nc1ccc(C(=O)O)cc1NC(=O)C(CC)c1ccccc1)c1ccccc1 (configuration not stated)	nt	nt	-4.5	0.7	nt
O=C(CCN1C(=O)C2C3CCC(C3)C2C1=O)OCC(=O)c1ccc(Br)cc1 (configuration not stated)	nt	nt	?	0.7	nt

Sorted by SMILES length (ascending): some entries from above
SMILES	Arbovirus inh	YopH PTP inh	Mtb bLac sens	RecA intein inh	Mtb growth	others
Brc1ccc(-c2noc(CCc3ccccc3)n2)o1	-6.3	-17.6	5.6	6.4	17.5%	Arbovirus inh repeat=-7.9
CCOC(=O)c1ccc(-c2ccc(C(=O)Nc3cccnc3)o2)cc1	-15.6	-33.8	99.3	5.3	?
CCC(C(=O)Nc1ccc(C(=O)O)cc1NC(=O)C(CC)c1ccccc1)c1ccccc1 (configuration not stated)	nt	nt	-4.5	0.7	nt
CC1(C)O[C@H]2OC([C@H](O)CON3C(=O)c4ccccc4C3=O)[C@H](O)[C@H]2O1 (some centres not stated)	6.0	-17.7	1.8	nt	-12.0%

(more compounds)
SMILES	Arbovirus inh	YopH PTP inh	Mtb bLac sens	RecA intein inh	Mtb growth	others
COc1ccc(NC(=O)c2cc(Br)ccc2Cl)c(OC)c1	-7.6	-25.4	nt	6.3	5.7%
COCCOC(=O)c1c(C)n(C)c2ccc(OC(=O)C3CC3)cc12	1.4	-22.4	-8.3	1.0	1.9%
O=C(O)C1CCN(S(=O)(=O)c2cccc3nsnc23)CC1	nt	nt	3.4	1.7	nt
COc1ccc(NC(=O)CN(C2CCCCC2)S(C)(=O)=O)cc1OC	2.9	-20.7	-2.4	-2.9	4.5%
Cc1cc(C)c2c(=O)c(C#N)coc2c1	nt	nt	-4.5	nt	-7.0%
CCC1=NN(C(=O)C(=O)Nc2ccc(Br)cc2)C(O)(C(F)(F)F)C1 (configuration not stated)	11.2	nt	7.6	0.3	-8.2%
O=C(NCc1cccnc1)C(=O)NCC1CCCO1 (configuration not stated)	-3.0	nt	1.0	-1.6	-4.5%
Cc1cc(Br)ccc1NCc1ccccn1	-1.4	-24.0	3.5	-1.9	-5.6%
N#Cc1c(-c2ccncc2)cc(-c2ccc(F)cc2)nc1N	nt	nt	?	-9.0	nt
Cc1ccc(-c2nc(CN(C)Cc3cccc4cnccc34)c(C)o2)s1	11.5	nt	-0.9	5.1	7.9%
COc1ccccc1CC(=O)N1CCC(n2nccc2NC(=O)C2CCOC2)CC1 (configuration not stated)	nt	nt	-7.7	-2.8	nt
CCOc1ccc(NC(=O)CCCc2cc(-c3ccc(OCC)cc3)on2)cc1	-1.9	22.4	-0.2	-2.8	47.1µM*

The last 2 records of the section before come first, to join the parts.
SMILES	Arbovirus inh	YopH PTP inh	Mtb bLac sens	RecA intein inh	Mtb growth	others
COc1ccccc1CC(=O)N1CCC(n2nccc2NC(=O)C2CCOC2)CC1 (configuration not stated)	nt	nt	-7.7	-2.8	nt
CCOc1ccc(NC(=O)CCCc2cc(-c3ccc(OCC)cc3)on2)cc1	-1.9	22.4	-0.2	-2.8	47.1µM*
O=C(NCc1cccnc1)C1CC(c2ccccc2Cl)=NO1 (configuration not stated)	nt	nt	-0.5	-1.9	nt
CCCn1c(N)c(Sc2ccc(Cl)cc2)c(=O)n(CCC)c1=O	-0.2	-22.4	-10.9	2.3	-15.2%
COc1ccc(C2C(C(=O)c3ccc(C)o3)=C(O)C(=O)N2Cc2cccnc2)cc1OC (configuration not stated)	nt	nt	1.5	0.0	nt
N/C(=N\OC(=O)Cc1cccs1)c1ccc(Br)cc1	-4.8	-37.7	5.5	6.5	-0.8%
COc1ccc(S(=O)(=O)Nc2c(NC3CCCCC3)c3ccccc3oc2=O)cc1OC	nt	nt	3.8	0.3	nt
O=C(CSc1nnc(-c2ccncc2)o1)N1CCCCCC1	5.4	nt	nt	1.2	0.3%
COc1ccc(NS(=O)(=O)c2cccc(C(=O)NCC3CCCO3)c2)cc1 (configuration not stated)	nt	nt	-3.0	-3.3	nt
CCn1c(CSc2nc(C)cc(C)n2)nnc1SCC(=O)Nc1nc(-c2ccccc2)cs1	-6.0	-36.5	-6.2	-1.8	-2.5%
Cc1cc(C)n(-c2nc(-c3ccc(Cl)c(Cl)c3)cs2)n1	-9.8	-18.3	nt	-0.2	-8.6%
COc1ccc(NC(=S)N(CCCN2CCC(C)CC2)Cc2cccs2)cc1Cl	3.6	nt	-20.4	-2.8	14.0%
Cc1ccc(Cn2nnc3c(=O)[nH]c(C4CCN(S(=O)(=O)/C=C/c5ccccc5)CC4)nc32)cc1	nt	nt	91.8	1.2	nt
CCOc1ccc(NC(=O)CN2CCN(CC(=O)c3ccc(OCC)cc3)CC2)cc1	-7.6	4.2	nt	4.6	63.7%
Cc1noc(NS(=O)(=O)c2ccc(NC(=O)NC(C)(C(F)(F)F)C(F)(F)F)cc2)c1C	nt	nt	5.3	-0.7	nt
O=C(CSc1nc2cc(Cl)ccc2s1)Nc1cccc(S(=O)(=O)N2CCOCC2)c1	4.2	-32.1	3.3	2.3	-1.9%
Cn1c(NCC(O)c2ccccc2)nc2c1c(=O)n(Cc1ccc(Cl)c(Cl)c1)c(=O)n2C (configuration not stated)	nt	-20.7	98.0	3.9	79.3%
Cc1ccccc1OCC(=O)NC(=S)Nc1ccc(S(=O)(=O)NC2CCCCC2)cc1	-14.0	-129.7	-1.2	nt	-2.4%
Cc1ccc(-c2nn(CC(N)=O)c(=O)c3ccccc23)cc1S(=O)(=O)N(C)C	-6.4	-10.3	-7.1	-0.7	-3.5%
O=C(c1ccc(Br)o1)N1CCN(CCOc2ccccc2)CC1	nt	nt	-0.8	-1.3	nt
CC(=O)C1=C(C)N(Cc2ccccc2)C(=O)N[C@H]1c1cccc(F)c1	nt	nt	-8.9	1.7	-10.0%
CCCCOc1ccc(C(C)NC(=O)CCS(=O)(=O)Cc2ccccc2Cl)cc1 (configuration not stated)	-6.3	-27.6	2.8	-2.1	-4.1%
O=c1c2c(nc3n1CCS3)c1cc(F)ccc1n2Cc1cc(=O)n2cc(Cl)ccc2n1	nt	nt	-1.6	-2.8	nt
Cc1cccc(-n2c(O)cnc2Nc2nc(C)cc(C)n2)c1	0.7	nt	-8.1	-0.4	-5.7%
COc1ccc(/C=C/C(=O)c2ccc3c4c(cccc24)CC3)cc1	21.3	-11.0	93.1	11.9	1.2%
O=C(Nc1ccc2ccccc2c1)C(c1ccccc1)C1CCCC1 (configuration not stated)	9.1	-2.0	0.1	7.6	7.0%
Cc1ccccc1N1C(S)=C(C#N)C(=O)NC1c1cccs1 (configuration not stated)	-1.9	-35.0	1.7	0.1	-6.5%
O=CN1CCN(C(C(=O)NC2CCCCC2)c2cc3c(cc2[N+](=O)[O-])OCO3)CC1 (configuration not stated)	-6.9	nt	13.0	-4.6	2.2%
COc1cccc(C(=O)NCC2CCCN2S(=O)(=O)c2cccs2)c1 (configuration not stated)	nt	nt	-1.5	-1.4	nt
OCCN(CCO)Cc1ccc(Br)cc1	12.1	-33.0	-4.5	-2.3	8.7%
